Screening data from PubChem BioAssay.
Calb biofilm kill – clotrimazole potentiators killing C. albicans biofilm, primary screen, 4-compound mixtures | inhibition, % at 7.6 µM | C. albicans biofilm persisters + clotrimazole, fluorescence viability; primary screen in compound mixtures of four per well | 120,000 compounds, 0.02% hits | AID 1242, 2008;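 active = inhibition above 30.3% in the primary screen of four-compound pools, then above 30% when the compound was retested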;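 note: compounds exposed to preformed 24 h biofilms for 48 h; the number belongs to the whole pool; some results filed as inactive read as strong as hits; inactives centre near 12; 0% = biofilm with clotrimazole alone and 100% = kill control; retested singly at about 60 µM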
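Assay system: C. albicans biofilms / Medium: RPMI/MOPS medium, pH 7.0 / Schedule: biofilm formation 24 h, compound exposure 48 h, 37 °C / Measured by: Alamar Blue fluorescence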
* = called active by the depositor.

entry	SMILES	Calb biofilm kill
1	O=C(Nc1ccc2c(c1)CCC2)c1cnc(Cl)c(Cl)c1	19
2	Cn1c(SCC(=O)N2CCCC2)nc2ccccc21	7
3	COc1ccc(C(OC(=O)c2ccco2)C(=O)NC2CCCCC2)cc1 (configuration not stated)	23
4	COc1cc(OC)nc(NC(=O)NS(=O)(=O)c2ccccc2Cl)n1	23
5	CCOc1ccc(C(=O)Nc2ccc3c(c2)OCCO3)cc1[N+](=O)[O-]	17
6	NNC(=S)NCc1ccc2c(c1)OCO2	9
7	Cc1ccccc1N(C(=O)c1csnn1)C(C(=O)NC(C)(C)C)c1cccs1 (configuration not stated)	16
8	COc1ccc(-c2nc(SC)n(S(=O)(=O)c3ccccc3)n2)cc1	4
9	O=C(N/N=C/c1ccc(O)cc1)c1nc(-c2ccccc2)n(-c2ccccc2)n1	12
10	CC(=O)ONC(=Nc1ccccc1)c1nonc1N	5
11	COc1ccc(CC(=O)Nc2cc(S(=O)(=O)N3CCCCC3)ccc2C)cc1OC	14
12	CC(=O)N1CCN(CC(=O)Nc2ccc(C)c(S(=O)(=O)N(C)C)c2)CC1	10
13	CCN(CC)C(=O)c1cccc2nc3ccccc3nc12	12
14	COc1ccc(CC(=O)OCC(=O)Nc2ccc3c(c2)OCO3)cc1	12
15	CN(C)c1oc(COc2ccc(F)cc2)nc1C#N	19
16	COCC(=O)N(C)C1(c2nnnn2CCOC(=O)Nc2ccc(Cl)cc2)CCCCC1	8
17	CC(=O)Nc1ccc(NC(=O)C(C)OC(=O)c2ccccc2NS(=O)(=O)c2cccs2)cc1 (configuration not stated)	22
18	CCOC(=O)c1c(/N=C/c2ccc(O)cc2O)sc2c1CCC2	20
19	COc1ccccc1CCNC(=O)CCSc1nc(-c2ccco2)cc(C(F)(F)F)n1	17
20	O=C(NCc1ccccc1Cl)C1CCN(c2cnccn2)CC1	9
21	Cc1ccc(OCC(=O)NNC(=S)NC(=O)C(C)(C)C)c(Br)c1	11
22	Cc1ccc(S(=O)(=O)Nc2cc(=O)[nH]c(SCC(=O)Nc3cccc(C)c3)n2)cc1	25
23	C#CCOCCOCCOCCNc1nc(N2CCN(C(=O)[C@H]([C@@H](C)CC)n3cc(CCCN=C(N)N)nn3)CC2)nc(N2CCN(C(=O)[C@H](C)n3cc(CCCN=C(N)N)nn3)CC2)n1	14
24	CC(=O)N(C)c1cccc([N+](=O)[O-])c1	-10
25	Cc1[nH][nH]c(=O)c1C(c1cc2c(cc1Br)OCO2)c1c(C)[nH][nH]c1=O	1
26	COc1ccccc1NC(=S)NC(=O)c1c(-c2ccccc2Cl)noc1C	19
27	CN(C)n1cccc1/C=C(\C#N)S(=O)(=O)c1cccc(Cl)c1	14
28	COc1cccc(/C=N/Nc2nc3ccccc3[nH]2)c1OC	7
29	Cc1cccc(-c2cc(C(=O)NCc3ccccn3)c3ccccc3n2)c1	13
30	O=C(CCN(NC(=O)c1ccccc1)C1=NS(=O)(=O)c2ccccc21)NC1CCCCC1	15
31	COC(=O)[C@@]1(Cc2ccc(OC)cc2)[C@H]2c3cc(C(=O)N(C)C)n(C[C@H](O)CO)c3C[C@H]2CN1C(=O)c1ccccc1	15
32	COc1ccc(Cn2ccnc2SCC(=O)Nc2cccc(NC(C)=O)c2)cc1	13

Compounds from the list above with a tert-butyl group:
entry	SMILES	Calb biofilm kill
7	Cc1ccccc1N(C(=O)c1csnn1)C(C(=O)NC(C)(C)C)c1cccs1 (configuration not stated)	16
21	Cc1ccc(OCC(=O)NNC(=S)NC(=O)C(C)(C)C)c(Br)c1	11

(more compounds)
entry	SMILES	Calb biofilm kill
33	CC(=O)c1cc2c(cc1N/C(=N/S(=O)(=O)c1ccc(Br)cc1)c1ccccc1)OCO2	14
34	Nc1ccc(S(=O)(=O)NNC(=O)C(=O)NNc2ccccc2)cc1	23
35	Cc1ccc(SCC2=NN(c3nc(C)cc(C)n3)C(=O)C2)cc1	5
36	O=C(COC(=O)CSc1nnc(-c2ccc(Cl)cc2)o1)Nc1cc(Cl)cc(Cl)c1	19
37	Cn1cc(C(=O)Nc2ccc(F)c(Cl)c2)cn1	15
38	CC(=O)c1cccc(CN2CCCC(CCC(=O)NCc3ccccc3F)C2)c1 (configuration not stated)	7
39	CN1CCN(C(=O)C2=C[C@H](c3coc4ccccc4c3=O)C[C@H](OCCCCO)O2)CC1	16
40	CCCCOc1ncnc2c1[nH]c1ccc(C)cc12	10
41	CCCN(C(=O)c1cn(CC)c2nc(C)ccc2c1=O)c1c(N)n(Cc2ccccc2)c(=O)[nH]c1=O	11
42	COc1ccc(-c2c(C)nn(-c3ccccc3)c2N)cc1OC	10
43	NC1=C([N+](=O)[O-])C(c2ccccc2)C2=C(CCCC2=O)O1 (configuration not stated)	6
44	NC(=O)c1sc2nc3c(c(-c4ccco4)c2c1N)CCCC3	21
45	CCOC(=O)C(C(C)=O)C(c1ccc(OCCC(C)C)cc1)C(C(C)=O)C(=O)OCC (configuration not stated)	16
46	COc1ccccc1P(=O)(c1ccccc1)c1ccccc1NC(C)=O (configuration not stated)	1
47	C=CCn1c(SC)nnc1C1COc2ccccc2O1 (configuration not stated)	12
48	O=C(NC1CCN(C(=S)NCc2ccco2)CC1)c1cccc(F)c1	12
49	COc1ccccc1NC(=O)CSC1=NCCN1	13
50	COc1ccc(S(=O)(=O)Nc2ccc(S(=O)(=O)Nc3ccc(F)cc3)cc2)cc1C	7
51	O=C(Oc1coc(CSc2nnc(NC(=O)C3CC3)s2)cc1=O)c1c(F)cccc1F	5
52	Nc1cccn2c(-c3ccc(Cl)c(Cl)c3)cnc12	2
53	COc1ccc(/C=C/C(=O)N2c3ccccc3Sc3ccc(C(F)(F)F)cc32)cc1	20
54	CC(C)(C)C(=O)/C(=C/c1ccncc1)n1cncn1	15
55	CC(NC(=O)CSc1nc2c(c(C(F)(F)F)n1)CCc1ccccc1-2)c1ccccc1 (configuration not stated)	20
56	COc1ccc(Cl)cc1C(=O)N/N=C/c1ccc(N2CCOCC2)cc1	13
57	O=C(Cc1ccc(-n2c(=O)[nH]c3ccsc3c2=O)cc1)N1CCN(c2ccc(Cl)cc2)CC1	16
58	COc1cc2cc(CN(Cc3cccnc3)C(=O)Nc3ccccc3F)c(=O)[nH]c2cc1OC	23
59	Cc1cc(NS(=O)(=O)c2ccc(NC(=S)NC(=O)c3ccc(C(C)(C)C)cc3)cc2)no1	-15
60	CC(C)OC(=O)CNc1n[nH]c(=S)[nH]c1=O	23
61	CCOCC(=O)Nc1ccc(OCc2ccccc2)cc1	10
62	COc1ccc(S(=O)(=O)N2CCC(CN3C(=O)c4cccc5cccc(c45)C3=O)CC2)cc1	14
63	CCOc1ccc(S(=O)(=O)N(C)c2ccc(OCC(=O)NCCc3ccc(OC)cc3)cc2)cc1	13
64	Cc1ccc(-c2csc(/C(C#N)=C/Nc3ccccc3SC(F)(F)F)n2)cc1	-6
65	Cc1ccccc1OCCC(=O)NCCc1ccc(S(N)(=O)=O)cc1	20
66	CO/N=C/c1c(-c2ccccc2)nn(C)c1Cl	23
67	O=C(NNC(=S)Nc1ccc(Cl)cc1)c1ccccc1OC(F)F	14
68	CCc1cccc(CC)c1NC(=S)N1CCn2cccc2C1c1ccncc1 (configuration not stated)	9
69	CN1CCN(C(=O)Nc2ccccc2)CC1	2
70	CCOc1ccccc1N1CCN(CC(=O)Nc2cc(C)on2)CC1	5
71	CC1CCC(C(C)C)C(OCC(O)CNC(C)c2ccccc2)C1 (configuration not stated)	15
72	O=C(NCc1cccc(Cl)c1)NCc1cccc(Cl)c1	8
73	CC(C)(C)n1ncc(Oc2ccccc2[N+](=O)[O-])c(Cl)c1=O	12
74	O=C(CNC(=O)c1ccccc1)N/N=C/c1ccccc1Cl	18
75	O=C(Nc1nc(-c2ccccn2)cs1)C12CC3CC(CC(O)(C3)C1)C2	17
76	O=C(Nc1ccc(S(=O)(=O)NC2=NCCCCC2)cc1)c1ccc(=O)[nH]c1	14
77	O=c1cc(O)n(-c2ccccc2)c(=S)[nH]1	10
78	CC(C)(C)NC(=S)NNC(=O)c1ccccc1Cl	1
79	CC(C)CN(C(=O)COC(=O)c1ccc([N+](=O)[O-])o1)C1CCS(=O)(=O)C1 (configuration not stated)	-13
80	Cc1cccc2cc(C3CC(c4cccs4)=NN3S(C)(=O)=O)c(Cl)nc12 (configuration not stated)	7
81	Cc1ccc2sc(NC(=O)c3ccc(N4C(=O)CCC4=O)cc3)nc2c1C	14
82	Cc1ccccc1CSCC(=O)NCc1ccco1	9
83	CN(C)C(=O)CS(=O)(=O)c1ccc(Cl)cc1	1
84	CC12c3ccccc3C(c3ccccc31)C1C(=O)N(c3cccnc3)C(=O)C12 (configuration not stated)	13
85	CN(C)c1ccc(Sc2nnc(NC(=O)Nc3ccc(Cl)cc3Cl)s2)cc1	2
86	O=C(N/N=C(\Cc1ncc[nH]1)c1ccccc1)c1ccncc1	13
87	COc1ccccc1NS(=O)(=O)c1cccc(C(=O)N/N=C(\C)c2ccc3c(c2)OCCO3)c1	17
88	Cc1ccc(C)c(S(=O)(=O)Nc2nc3ccc(S(N)(=O)=O)cc3s2)c1	5

Additional results:
entry	SMILES	Calb biofilm kill
89	COc1ccc([N+](=O)[O-])cc1N(CC(=O)N1CCCC1)S(C)(=O)=O	10
90	O=C(CN1C(=O)C(=O)N(C2CCCC2)C1=O)Nc1ccc(N2CCOCC2)cc1	20
91	Cc1cn(CCC(=O)Nc2ccc(N3CCOCC3)cc2)c2ccccc12	27
92	COc1ccc2[nH]cc(C(O)CN3CCN(c4ccccc4F)CC3)c2c1 (configuration not stated)	15
93	Cc1c(NC(=O)C(C)OC(=O)c2sc3ccccc3c2Cl)c(=O)n(-c2ccccc2)n1C (configuration not stated)	9
94	CCC1(C)Cc2nc3[nH]c(=S)n(-c4ccc(C)cc4)c(=O)c3cc2CO1 (configuration not stated)	-1
95	O=C(NCc1ccccc1Cl)C1CCN(S(=O)(=O)c2ccc(F)cc2)CC1	1
96	C=CCN1C(=O)C(C)NC1=S (configuration not stated)	3

Two of these compounds in another layout:
89	COc1ccc([N+](=O)[O-])cc1N(CC(=O)N1CCCC1)S(C)(=O)=O
- Calb biofilm kill: 10

90	O=C(CN1C(=O)C(=O)N(C2CCCC2)C1=O)Nc1ccc(N2CCOCC2)cc1
- Calb biofilm kill: 20

Remaining list, next part.
entry	SMILES	Calb biofilm kill
97	Cc1ccc(CNC(=O)CCCc2ccccc2)cc1	29
98	CC(C)n1c(NCCO)nc2ccccc21	10
99	CCOc1ccc(NC(=O)CSc2ncn[nH]2)c([N+](=O)[O-])c1	19
100	Cc1cccc(CSC(=N)N)c1	-6
101	NC(=O)c1ccc(Nc2ccc([N+](=O)[O-])cc2[N+](=O)[O-])cc1	-17
102	O=C(C1CCCCN1S(=O)(=O)c1ccccc1[N+](=O)[O-])N1CCCCC1 (configuration not stated)	16
103	Cc1cc(-c2ccccc2)[nH]c(=O)c1C#N	13
104	COC(=O)CNC(=O)CSc1ccccn1	2
105	CCOc1ccc2c(c1)OC(c1ccc(OC)cc1)(C(F)(F)F)NC2=O (configuration not stated)	15
106	O=C(CN1C2CCCC1CC(NC(=O)c1ccccc1)C2)NC1CC1 (configuration not stated)	14
107	O=c1cc(CSc2nnc(COc3ccccc3)n2-c2ccccc2)c2ccccc2[nH]1	16
108	Cc1sc2ncn(CC(=O)NCc3ccccc3)c(=O)c2c1C	23
109	COc1ccc(CNC(=O)c2cc(-c3cc(C)ccc3O)n[nH]2)cc1	11
110	CN(C)C(CNC(=O)CNC(=O)c1ccc(Br)cc1)c1ccccc1 (configuration not stated)	14
111	COc1ccc(C(=O)NCCN2C(=O)S/C(=C\c3cccnc3)C2=O)c(OC)c1OC	-5
112	COCCN(CCOC)S(=O)(=O)c1ccc(C(=O)Nc2sc3c(c2C(N)=O)CCCCC3)cc1	14

Of the compounds above, four contain a cyano group:
entry	SMILES	Calb biofilm kill
15	CN(C)c1oc(COc2ccc(F)cc2)nc1C#N	19
27	CN(C)n1cccc1/C=C(\C#N)S(=O)(=O)c1cccc(Cl)c1	14
64	Cc1ccc(-c2csc(/C(C#N)=C/Nc3ccccc3SC(F)(F)F)n2)cc1	-6
103	Cc1cc(-c2ccccc2)[nH]c(=O)c1C#N	13

Going on with the list.
entry	SMILES	Calb biofilm kill
113	Cn1c(CCCOc2ccc(Cl)cc2Cl)n[nH]c1=S	5
114	O=C(/C=C/c1ccccc1Cl)Nc1ccc(-c2nnc3n2CCCCC3)cc1	19
115	Cc1cc(NC(=O)/C=C/c2ccc(F)cc2)n(-c2nc3ccccc3[nH]2)n1	3
116	O=C(NNC(=S)NCc1ccc(Cl)cc1)c1ccc(Br)o1	2
117	O=C(Nc1ccc(F)cc1F)NC1CCN(Cc2c(F)cccc2Cl)CC1	21
118	Cc1c([N+](=O)[O-])cc(C(=O)N2CCOCC2)cc1[N+](=O)[O-]	-1
119	CCC(C)[C@H](NC(=O)NCCCOC(C)C)C(=O)OC (some centres not stated)	16
120	c1ccc(CSC2=NCCS2)cc1	12

Pulled by structure from the list above, 2 records:
entry	SMILES	Calb biofilm kill
62	COc1ccc(S(=O)(=O)N2CCC(CN3C(=O)c4cccc5cccc(c45)C3=O)CC2)cc1	14
119	CCC(C)[C@H](NC(=O)NCCCOC(C)C)C(=O)OC (some centres not stated)	16

Additional records.
entry	SMILES	Calb biofilm kill
121	Cc1cc(Br)cc2cn[nH]c12	13
122	O=C1CSc2ccc(C(=O)O)cc2N1	11
123	Cc1ccc(C[n+]2cccc(-c3ccccc3)c2)c(C)c1	4
124	CN(C)c1ccc(/C=N/N2CCN(c3ccccn3)CC2)cc1	14

This is a subset, so the mix of outcomes need not match the whole.
